T cruzi inh = T. cruzi replication inhibition. 300,000 compounds, 1.4% hits. AID 1885. T. cruzi beta-gal in NIH3T3, luminescence, 90 h. inhibition, % (concentration not given with the values);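 active means mean inhibition across valid replicates above about 55%, limit read from the data; inconclusive means mean below that limit but half or more replicates reach it; inactive means mean below it, under half of replicates reach it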;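 further: signal also drops with host cell toxicity which is not excluded here; 0% = plate median of DMSO wells and 100% = zero luminescence signal; higher percent means less beta-gal luminescence so fewer parasites; stock transfer was 50 nL into about 50 µL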
LANA-H2A inh = blocks KSHV LANA binding to histone H2A/H2B | Q9QR71 | cell-free LANA-H2A/H2B peptide, fluorescence polarization | 320,000 compounds, 0.6% hits | inhibition, % (test concentration not listed); in the data active means inhibition mostly above about 10%, no sharp cut-off; inactive means mostly below about 6.7%;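 further: stock transfer was 7.5 nL into about 10 µL; 0% = median of vehicle wells and 100% = median of positive control wells; one replicate is shown; the record names a cut of 25% in any replicate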
Target sequence (Q9QR71 whole entry, looked up): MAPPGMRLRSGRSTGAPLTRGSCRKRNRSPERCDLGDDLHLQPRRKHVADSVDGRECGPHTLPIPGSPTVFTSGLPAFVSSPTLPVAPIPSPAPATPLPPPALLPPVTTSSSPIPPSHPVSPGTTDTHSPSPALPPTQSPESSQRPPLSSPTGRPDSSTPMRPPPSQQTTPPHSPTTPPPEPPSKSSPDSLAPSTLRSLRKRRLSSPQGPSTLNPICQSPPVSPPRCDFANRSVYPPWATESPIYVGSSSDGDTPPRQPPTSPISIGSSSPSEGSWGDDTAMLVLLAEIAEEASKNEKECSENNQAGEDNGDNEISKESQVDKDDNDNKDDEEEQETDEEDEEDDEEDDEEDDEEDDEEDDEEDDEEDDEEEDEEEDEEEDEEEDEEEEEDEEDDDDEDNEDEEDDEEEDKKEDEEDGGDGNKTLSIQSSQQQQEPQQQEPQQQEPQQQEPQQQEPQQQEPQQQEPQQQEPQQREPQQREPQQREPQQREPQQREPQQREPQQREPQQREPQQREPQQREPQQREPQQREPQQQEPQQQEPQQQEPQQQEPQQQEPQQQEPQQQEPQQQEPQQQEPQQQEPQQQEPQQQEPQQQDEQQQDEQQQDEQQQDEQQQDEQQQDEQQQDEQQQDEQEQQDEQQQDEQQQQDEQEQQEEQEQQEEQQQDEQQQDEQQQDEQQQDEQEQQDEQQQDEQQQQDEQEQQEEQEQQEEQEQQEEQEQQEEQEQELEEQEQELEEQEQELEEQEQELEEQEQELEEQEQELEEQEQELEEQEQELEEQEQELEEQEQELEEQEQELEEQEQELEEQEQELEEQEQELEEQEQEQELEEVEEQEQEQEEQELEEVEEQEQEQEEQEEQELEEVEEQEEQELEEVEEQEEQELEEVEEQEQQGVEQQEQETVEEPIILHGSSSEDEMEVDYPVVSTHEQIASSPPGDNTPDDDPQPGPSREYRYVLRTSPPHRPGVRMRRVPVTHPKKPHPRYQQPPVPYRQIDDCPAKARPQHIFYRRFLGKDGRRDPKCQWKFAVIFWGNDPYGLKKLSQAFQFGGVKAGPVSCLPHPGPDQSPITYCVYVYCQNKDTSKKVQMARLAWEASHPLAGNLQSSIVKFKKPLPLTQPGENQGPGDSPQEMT
UCH37 DUB inh = human UCH37 deubiquitinating enzyme inhibition; Q9Y5K5; 330,000 compounds, 0.33% hits; purified proteasome/UCH37, Ub-AMC cleavage fluorescence; inhibition, % (test concentration not listed);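 active means mean of two replicates above 20%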;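 further: 0% = compound-free wells with enzyme and 100% = wells lacking proteasome; stock transfer was 100 nL into about 20 µL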
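Reagent: Ub-AMC substrate; assay system: Proteasome-associated human UCH37 deubiquitinase; controls: no-proteasome and no-compound wells; read-out: % inhibition of Ub-AMC cleavage fluorescence; timing: 30 min preincubation with enzyme, 25 min cleavage at room temperature; signal: AMC fluorescence from Ub-AMC cleavage, excitation 355 nm, emission 460 nm; buffer or medium: Tris-HCl pH 7.4 plus ovalbumin, ATP-MgCl2, DTT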
RanGTP-Imp inh = inhibitors of RanGTP-importin-beta interaction, primary screen, biochemical, FRET, CFP-Ran, YFP-importin-beta, homogeneous | inhibition, % (no concentration beside the values) | cell-free CFP-Ran/YFP-importin-beta FRET ratio | 300,000 compounds, 1.1% hits;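 active means most replicates above 15%; inconclusive means exactly half above 15%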;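 further: 0% = DMSO wells and 100% = Ran loaded with GDP instead of GTP; wells of about 40 µL received 100 nL stock; the first replicate is given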
Calb FLC = C. albicans growth modulation with fluconazole. 300,000 compounds, 0.57% hits. growth inhibition, % (no concentration beside the values). C. albicans CaCi-2 (fluconazole-resistant clinical isolate) + fluconazole, Alamar Blue growth, 48 h. AID 1979;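 active means most replicates above 75%; inconclusive means exactly half above 75%; inactive means most below 75%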;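 further: all wells also contain fluconazole at 8 µg/ml as a sub-toxic cotreatment; 0% = median of DMSO wells and 100% = median of geldanamycin control wells; wells of about 8 µL received 7.5 nL stock; the first replicate is given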
Bfl-1 A1 inh = inhibitors of the anti-apoptotic protein A1, read as caspase activation | MEF A1-2A-BIM cells, Caspase-Glo 3/7 luminescence, 3 h; percent of clofoctol response, vehicle zero | caspase activation, % (test concentration not listed) | 330,000 compounds, 0.066% hits | AID 2462;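 active means over half of replicate activation scores above 10%, or exactly half above 10 with the replicate mean above 10; inconclusive means replicate mean below 10 yet half the replicates above 10; inactive means over half of replicates below 10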;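 further: wells of about 30 µL received 50 nL stock; many hits fall short of the cut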
Beta cell apopt = blocks beta cell apoptosis. INS-1E cytokine-induced death, ATP luminescence, 48 h; percent of positive-control rescue, neutral wells zero. AID 435005. protection from apoptosis, % (concentration not given with the values). 300,000 compounds, 0.8% hits;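 active means all replicates at 75% or more, or half of them and the mean; inconclusive means half reach 75% but not the mean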;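 further: 0% = cytokine-treated negative control wells and 100% = positive control rescue; higher means more ATP so stronger rescue from cytokine killing; wells of about 40 µL received 100 nL stock; the first replicate is given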
B2AR ag = activates human beta-2 adrenergic receptor causing internalization | Am2.2-beta2AR cells, FAP receptor internalization, flow cytometry; reference of the scale not given here | response, % (concentration not given with the values) | 340,000 compounds, 0.43% hits | AID 504454;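 active means response above a set limit, near 3 SD of response in nonfluorescent compounds, cut at about 42% in these data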;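 further: stock transfer was 100 nL into about 11 µL; a reference agonist was the positive control; negative values mostly stem from fluorescent compounds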
An asterisk follows results filed as active; u = inconclusive; x = not tested or not shown; & = joins results of further samples. Compounds were not picked by outcome. Share with any hit: about 4.3%.

SMILES	T cruzi inh	LANA-H2A inh	UCH37 DUB inh	RanGTP-Imp inh	Calb FLC	Bfl-1 A1 inh	Beta cell apopt	B2AR ag
Cc1nc([N+](=O)[O-])cn1CCCCN1C(=O)c2ccccc2C1=O	-1	-2.9	2.9	1.0	33	0.6	-6	-2
O=C(CSc1nnc(CNc2ccc(F)cc2)o1)c1ccccc1	-2	-1.1	5.2	0.2	u	-0.2	-11	-21
CC(=O)NC(CC(=O)OC(C)C(=O)Nc1ncc(Cl)cc1Cl)c1ccccc1 (configuration not stated)	-3	0.8	-5.4	0.1	4	-0.6	-2	-6
C#CCOCCOCCOCCNc1nc(N2CCN(C(=O)[C@H](Cc3ccc(O)cc3)n3cc(CCO)nn3)CC2)nc(N2CCN(C(=O)[C@H](Cc3ccc(O)cc3)n3cc(CCO)nn3)CC2)n1	-9	-4.2	1.9	1.5	5	-0.7	x	x
COc1cccc(/C=N/NC(=O)CCc2n[nH]c(=O)[nH]c2=O)c1O	-3	-1.5	x	-6.6	u	0.3	-6	17
COc1ccc(CCNC(=O)c2cc(=O)c3cc(C)ccc3o2)cc1	-1	0.8	-0.2	-3.9	30	-0.5	1	-4
Brc1cccc(CNCCCN2CCOCC2)c1	8	5.8	3.4	-1.0	3	0.4	-2	-1
Cc1oc(C)c(C(=O)O)c1COc1ccc(C(=O)O)cc1	-6	-5.7	0.8	-2.4	-7	1.7	-2	6
O=C(CCCOC(=O)c1cccnc1Cl)c1ccc(Br)cc1	x	-1.8	x	x	x	-0.4	1	1
O=[N+]([O-])c1cccn2cc(-c3ccc(Br)cc3)nc12	-10	4.3	4.0	1.8	16	-1.1	-7	-8
Cc1ccc([N+](=O)[O-])cc1NC(=O)CCCOc1ccccc1	-2	-5.3	1.8	-4.1	-3	-0.3	1	-8
COc1ccc(CNC(=O)CN(c2ccccc2OC)S(=O)(=O)c2cccs2)cc1	x	-1.8	4.0	x	x	-0.6	6	-1
Cc1cccc(S(=O)(=O)NC(Cc2c[nH]c3ccccc23)C(=O)O)c1 (configuration not stated)	-10	-0.1	4.6	u	6	1.4	x	3
Cc1cc(C)n2nc(C(=O)OCC(=O)NCc3ccc(F)cc3)nc2n1	x	-3.1	-3.9	x	x	0.5	4	-2
O=C(O)c1ncc(Cl)c(Cl)c1Cl	-1&-15	0.7&-0.3	4.3&3.0	2.1&-1.8	-5&16	-0.1&0.2	-2&1	10&-2
Cc1occc1-c1nnc(SCC(=O)c2c(N)n(C3CC3)c(=O)[nH]c2=O)n1C	x	-6.1	3.3	x	x	0.0	-4	-3
Cc1ccc(NC(=O)c2cnccn2)cc1S(=O)(=O)N1CCCCCC1	x	5.8	-1.1	x	x	0.5	-2	-10
COC(=O)c1cc2c(ccn2-c2ccc(F)cc2)n1Cc1cccc(OC)c1	18	1.4	-4.0	2.0	2	0.3	8	-24
O=C(CSc1n[nH]c(-c2ccccc2)n1)c1ccccc1	1	-2.6	7.3	7.5	2	-1.5	-2	-8
COC(=O)n1c(SC)nc2ccccc21	2	1.9	5.4	u	3	0.0	3	78*
CN1/C(=C\C=N\O)C(C)(C)c2ccccc21	-16	-0.9	x	3.9	7	-0.9	-5	-2
O=C(c1[nH]ncc1-c1ccc(Cl)cc1)C1CO1 (configuration not stated)	-16	-9.9	x	-5.5	8	0.5	-20	5
O=C(O)CCCNc1cc(N2CCN(C(=O)c3ccco3)CC2)c2noc3c2c1C(=O)c1ccccc1-3	-3	14	x	-82	7	-0.8	x	9
Cc1ccccc1Cn1cc(NS(=O)(=O)c2cn(C)nc2C)cn1	3	-5.0	1.0	-0.7	5	0.3	x	3
Cc1nnc(SCc2cccc(Cl)c2)n(N)c1=O	-15	1.5	3.1	1.0	-30	-0.9	1	-1
COC(=O)c1ccc(NC(=O)c2cc(-c3ccncc3)nc3ccccc23)cc1	x	-8.0	5.6	x	x	2.1	0	5
CN1CCN(CCCNC(=O)C2CC(=O)N(C3CCCCC3)C2)CC1 (configuration not stated)	-4	-4.0	-5.2	u	-6	-0.3	-9	0
COc1ccccc1C(=O)N1CCN(C(=O)Cc2ccccc2)CC1	-5	-1.0	5.2	2.4	-4	0.3	-6	-8
COc1cc(/C=N/NC(=O)Cc2cccs2)c([N+](=O)[O-])cc1OC	-4	1.5	x	-0.5	-15	0.8	x	4
NC(=O)C1CCN(C2CC(=O)N(Cc3cccs3)C2=O)CC1 (configuration not stated)	-3	x	2.8	4.4	-6	x	x	4
CCOCCCn1c(=S)[nH]c2cc(C(=O)NCCCN(CC)CC)ccc2c1=O	-1	-8.6	3.3	4.3	1	0.5	-2	5
O=C(O)c1ccc(S(=O)(=O)c2ccc3c(c2)C(=O)N(NC(=O)c2ccccc2)C3=O)cc1	-10	0.2	2.5	-3.5	-4	-0.4	x	2
CCn1c(=O)c(C(=O)NCc2ccc3c(c2)OCO3)c(O)c2ccccc21	-21	-1.4	3.2	-3.0	5	0.9	x	-10
Cn1c(=O)n(CC(=O)N2CCN(c3nnc(-c4ccccc4)c4ccccc34)CC2)c2ccccc21	-9	1.0	5.4	6.9	-1	0.7	17	15
Cc1ccc2nc(N(CCCN(C)C)C(=O)c3ccco3)sc2c1	56*	-0.7	4.0	0.9	-18	-0.6	-2	6
Cc1ccc(CS(=O)(=O)Cc2ccc(C(=O)NCc3ccccn3)o2)cc1	9	-1.3	0.0	-4.2	-3	0.8	-3	-1
CCCCn1c(N)c(N(CCC(C)C)C(=O)c2ccc(N3CCCC3=O)cc2)c(=O)[nH]c1=O	9	1.7	-3.2	0.3	-8	0.1	4	-6
COc1ccccc1CNc1cc(CSc2ccc(Cl)cc2)nc(C)n1	22	3.8	1.1	5.5	-1	-0.7	-5	-3
CCOC(=O)c1cc(/C(C)=N/OC(=O)c2ccc(C(C)(C)C)cc2)on1	x	-4.3	x	-1.9	20	3.6	x	8
CC(C)Oc1nc(-c2ccc(Cl)cc2)nc2ccccc12	-31	6.4	2.1	-1.2	-4	1.3	-6	-2
O=C(Nc1cccc(Cl)c1)Nc1c[nH]c(=O)[nH]c1=O	-1	-0.8	1.5	7.9	-3	1.0	3	1
COCC(C)NC(=O)COCc1cc(-c2ccc3c(c2)OCO3)on1 (configuration not stated)	-12	6.5	3.9	-3.6	5	-0.8	-1	-3
O=C(c1cc(-c2ccc(Cl)c(Cl)c2)on1)N1CCCCC1	6	2.9	2.1	8.3	-14	-3.9	5	-4
Cc1ccc(NC(=O)C[n+]2ccccc2)cc1C	-23	-1.1	1.3	u	8	-1.3	2	3
NS(=O)(=O)c1cccc(NC(=O)c2ccccc2NS(=O)(=O)c2ccc(F)cc2)c1	-7	-0.7	-17	-0.7	7	1.0	-1	8
COc1cccc(N(CC(=O)NC2CCCC2)C(=O)CCC(=O)Nc2cc(C)on2)c1	8	-3.6	0.6	2.1	-2	-1.5	2	0
Cc1ccc(-c2csc(NCCc3nc4cc(Cl)c(Cl)cc4n3CCCO)n2)cc1	-22	-2.5	5.1	8.0	2	0.1	-1	-2
Cc1ccc(S(=O)(=O)N2CCCCC2)cc1NC(=O)CSc1nnc(C2CC2)n1N	x	3.9	2.7	x	x	-0.7	2	-3
COc1cc(C(=S)N2CCOCC2)cc(OC)c1OS(=O)(=O)c1ccc(Cl)cc1	11	-3.4	1.3	-0.5	3	0.1	-6	-2
Cc1ccc(-c2cnn(-c3ccccc3)c2N)cc1	-2	2.8	1.9	-1.8	-5	-11	19	0
Cc1cccc(NCCC(=O)c2ccc([N+](=O)[O-])cc2)c1C	15	0.8	2.8	-3.2	1	0.8	-4	4
O=C(NCc1cccnc1)C1CCCN(S(=O)(=O)c2ccc(Br)cc2)C1 (configuration not stated)	-4	-1.9	4.5	0.1	-9	1.3	-1	24
O=C(CN1CCOCC1)Nc1ccccc1C(=O)O	-15	-7.5	0.8	5.9	10	0.1	-1	0
Cc1ccc(OCC(O)Cn2c(NCCc3ccccc3)nc3c2c(=O)[nH]c(=O)n3C)cc1 (configuration not stated)	-1	-0.7	3.8	0.3	-2	-0.4	1	1
O=C(c1ccncc1)c1ccc([N+](=O)[O-])cc1	-5	7.9	0.3	-1.6	-5	-0.4	-4	-9
COc1ccc(OC)c2sc(Cl)nc12	-14	-3.8	6.4	-3.5	-21	1.9	-2	-8
O=C1C=C(c2cccc(CO)c2)C[C@@H](c2ccc3c(c2)OCO3)C1	x	0.8	2.5	x	x	1.9	-4	3
CCOc1ccc(N(CC(=O)NC2CCCCC2)C(=O)CCC(=O)Nc2cc(C)ccn2)cc1	-8	-1.1	1.9	2.2	3	-0.6	0	-6
CCC(=O)Nc1nnc(S(=O)(=O)N(C)c2cc(C)cc(C)c2)s1	2	4.7	0.5	-0.3	2	0.1	-6	3
O=S(=O)(NCc1cccnc1)c1ccc(Br)s1	-7	1.2	4.9	-2.4	-7	-0.1	1	-1

(continued)
SMILES	T cruzi inh	LANA-H2A inh	UCH37 DUB inh	RanGTP-Imp inh	Calb FLC	Bfl-1 A1 inh	Beta cell apopt	B2AR ag
COc1ccc(CN2C(=O)c3ccccc3C2=O)cc1C(=O)N(C)CC(=O)Nc1ccc(F)cc1	x	2.5	4.2	x	x	-0.5	-2	-7
O=C(CCCc1nc2ccccc2s1)NCc1ccc(F)cc1	11	-5.0	3.6	-1.2	1	-0.1	-6	5
CCOC(=O)CC(=O)CSc1ncnc2c1nnn2-c1ccccc1	6	-1.1	2.4	1.8	1	-0.6	x	14
S=C(NCCc1ccccc1)NCC(c1ccco1)N1CCCCC1 (configuration not stated)	17	-1.2	-1.4	7.2	-44	0.6	1	-1
CCC(CC)C(=O)NCCCN1CCOCC1	-2	-2.4	1.2	-0.5	-10	-0.1	-6	4
NS(=O)(=O)c1ccc(NC(=O)COC(=O)c2cnccn2)cc1	-8	-0.8	x	5.3	-13	1.2	-9	-4
O=C(OCc1nnc(-c2ccccc2)o1)C1CC(=O)N(CCc2ccccc2)C1 (configuration not stated)	x	-2.4	2.3	x	x	-0.6	2	4
COc1ccc(NC(=O)C2CCC2)cc1S(=O)(=O)Nc1cc(C)ccc1Br	x	-1.1	1.8	x	x	1.2	0	-9
Cc1cc(C)nc(NC2=NCC(=O)N2c2ccccc2)n1	-12	-4.1	0.4	-0.8	3	u	-3	-21
COc1ccc(CNC(=O)COC(=O)c2ccc3ncsc3c2)cc1OC	x	-477	-0.7	x	x	0.4	-3	-3
COc1cc(OC)cc(C2C(C#N)=C(N)Oc3n[nH]c(-c4cccnc4)c32)c1 (configuration not stated)	-8	-0.9	-0.3	u	17	-0.2	2	-6
CCOc1ccc(C(=O)NC(Cc2ccccc2)C(=O)OC)cc1 (configuration not stated)	2	2.3	1.3	-0.8	12	-2.1	2	-3
COc1ccc(NC(=O)Cc2coc3cc(C)ccc23)cn1	-16	2.3	-1.0	-4.3	-1	-1.4	0	1
COc1cc2c(cc1OC)C(C(=O)Nc1cccc(C)n1)C(c1cccnc1)N(C)C2=O (configuration not stated)	x	0.8	2.3	x	x	0.8	-9	-6
CN(C(=O)COC(=O)Cc1ccccc1[N+](=O)[O-])C1CCS(=O)(=O)C1 (configuration not stated)	x	0.3	2.7	x	x	0.9	-2	-4
